# Bfl-1 A1 inh = caspase 3/7 activation in MEF A1-2A-BIM cells, primary screen, A1 inhibitor project, cell-based, luminescence, HTS; Caspase-Glo 3/7 luminescence, 3 h; percent of clofoctol response, vehicle zero; caspase activation, % (no concentration beside the values); 0.066% of 330,000 active; AID 2462, 2010;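 active = over half of replicate activation scores above 10%, or exactly half above 10 with the replicate mean above 10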;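 also: wells of about 30 µL received 50 nL stock; many hits fall short of the cut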
# Calb FLC = C. albicans growth inhibition with fluconazole, primary screen, CaCi-2 strain, Alamar Blue fluorescence; C. albicans CaCi-2 (fluconazole-resistant clinical isolate) + fluconazole, 48 h; growth inhibition, % (no concentration beside the values); 0.57% of 300,000 active;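 active = most replicates above 75%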;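 also: all wells also contain fluconazole at 8 µg/ml as a sub-toxic cotreatment; 0% = median of DMSO wells and 100% = median of geldanamycin control wells; wells of about 8 µL received 7.5 nL stock; the first replicate is given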
# Beta cell apopt = inhibitors of cytokine-induced beta cell apoptosis, primary screen, luminescence. INS-1E cytokine-induced death, ATP luminescence, 48 h; percent of positive-control rescue, neutral wells zero. AID 435005, 2010. protection from apoptosis, % (concentration not given with the values). 0.8% of 300,000 active;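 active = all replicates at 75% or more, or half of them and the mean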;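 also: 0% = cytokine-treated negative control wells and 100% = positive control rescue; higher means more ATP so stronger rescue from cytokine killing; wells of about 40 µL received 100 nL stock; the first replicate is given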
# T cruzi repl = inhibitors of intracellular T. cruzi growth, primary screen, luminescence, NIH3T3 host cells; T. cruzi beta-gal in NIH3T3, 90 h; inhibition, % (test concentration not listed); 1.4% of 300,000 active;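 active = mean inhibition across valid replicates above about 55%, limit read from the data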;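 also: signal also drops with host cell toxicity which is not excluded here; 0% = plate median of DMSO wells and 100% = zero luminescence signal; higher percent means less beta-gal luminescence so fewer parasites; stock transfer was 50 nL into about 50 µL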
# Ecoli rRNA inh = reduced GFP signal of wild-type E. coli, primary screen, bacterial rRNA inhibitor project, GFP/RFP fluorescence, OD600, single point; GFP signal change (wild-type ribosome), % (no concentration beside the values); 1.6% of 350,000 active; E. coli WT GFP vs humanized-ribosome RFP mutants, 24 h; stronger effect = lower value; DMSO median 0, no signal -100; AID 720706, 2013;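 active = significant combined selectivity score with lowered wild-type GFP, culture density cut under 30%, mutant RFP and density less affected; inactive = any of these conditions unmet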; also: one replicate is shown; some compounds called inactive have numbers as strong as hits
# Beta2AR agonist = beta2AR agonists driving receptor internalization, primary screen, cell-based, FAP fluorogen, flow cytometry. 0.43% of 340,000 active. Am2.2-beta2AR cells; reference of the scale not given here. response, % (test concentration not listed). AID 504454, 2011;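 active = response above a set limit, near 3 SD of response in nonfluorescent compounds, cut at about 42% in these data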;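 also: stock transfer was 100 nL into about 11 µL; a reference agonist was the positive control; negative values mostly stem from fluorescent compounds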
# ALR H2O2 inh = inhibitors of human ALR sulfhydryl oxidase, primary screen, biochemical, H2O2 detection, HRP-luminol luminescence, single point. FAD-linked sulfhydryl oxidase ALR (Homo sapiens), P55789. purified ALR, DTT oxidation. inhibition, % (concentration not given with the values). 3.8% of 290,000 active. AID 485317, 2010;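 active = mean and each replicate at 75% or more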;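 also: stock transfer was 7.5 nL into about 7.5 µL; 0% = neutral wells and 100% = wells with inactivated enzyme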
# LANA-H2B inh = blockers of LANA interaction with H2A/H2B – biochemical, FP readout, HTS, primary screen | 0.6% of 320,000 active | cell-free LANA-H2A/H2B peptide, fluorescence polarization | inhibition, % (test concentration not listed) | Protein LANA1 (Human herpesvirus 8 type P (isolate GK18)), Q9QR71; in the data active = inhibition mostly above about 10%, no sharp cut-off; inactive = mostly below about 6.7%;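 also: stock transfer was 7.5 nL into about 10 µL; 0% = median of vehicle wells and 100% = median of positive control wells; one replicate is shown; the record names a cut of 25% in any replicate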
# Target sequence (Q9QR71 whole entry, looked up): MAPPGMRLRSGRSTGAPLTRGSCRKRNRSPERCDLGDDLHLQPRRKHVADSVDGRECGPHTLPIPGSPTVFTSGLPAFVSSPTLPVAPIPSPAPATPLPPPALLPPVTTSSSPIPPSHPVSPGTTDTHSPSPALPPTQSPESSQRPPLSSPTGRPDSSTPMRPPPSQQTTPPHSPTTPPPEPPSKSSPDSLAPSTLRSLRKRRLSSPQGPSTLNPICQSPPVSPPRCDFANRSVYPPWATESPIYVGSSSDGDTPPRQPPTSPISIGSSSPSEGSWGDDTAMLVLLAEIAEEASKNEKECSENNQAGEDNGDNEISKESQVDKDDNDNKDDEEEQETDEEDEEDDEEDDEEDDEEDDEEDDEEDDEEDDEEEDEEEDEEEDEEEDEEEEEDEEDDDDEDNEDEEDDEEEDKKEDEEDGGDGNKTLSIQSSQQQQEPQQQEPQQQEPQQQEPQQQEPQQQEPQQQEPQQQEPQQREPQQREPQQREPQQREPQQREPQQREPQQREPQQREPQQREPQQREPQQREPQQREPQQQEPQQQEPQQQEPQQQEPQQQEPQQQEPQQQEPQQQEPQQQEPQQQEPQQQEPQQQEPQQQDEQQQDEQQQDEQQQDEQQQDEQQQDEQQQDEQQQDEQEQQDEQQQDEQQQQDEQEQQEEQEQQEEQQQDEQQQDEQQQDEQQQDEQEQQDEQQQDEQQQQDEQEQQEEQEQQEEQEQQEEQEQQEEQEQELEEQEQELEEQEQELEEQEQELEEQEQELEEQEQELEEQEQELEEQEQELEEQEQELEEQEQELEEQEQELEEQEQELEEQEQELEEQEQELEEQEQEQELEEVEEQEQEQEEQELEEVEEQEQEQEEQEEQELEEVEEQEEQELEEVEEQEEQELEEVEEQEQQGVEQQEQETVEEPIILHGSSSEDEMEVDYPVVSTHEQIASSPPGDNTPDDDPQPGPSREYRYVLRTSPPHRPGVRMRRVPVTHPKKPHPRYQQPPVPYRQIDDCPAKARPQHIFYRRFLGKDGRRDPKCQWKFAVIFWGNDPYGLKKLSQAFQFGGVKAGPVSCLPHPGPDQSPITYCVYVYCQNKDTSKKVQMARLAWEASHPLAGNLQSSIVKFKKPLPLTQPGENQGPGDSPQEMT
# Ecoli rRNA inh OD600 = further read-out of Ecoli rRNA inh, marked with its call; OD600 change, %; measured here: OD600 growth;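 optical density of the mix in the first replicate; 0 = DMSO median and -100 = no signal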
# Ecoli rRNA inh RFP = also measured in Ecoli rRNA inh; calls as there; RFP signal change, %; measured here: RFP humanized mutant strains;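 first replicate; 0 = DMSO median and -100 = no signal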
# * marks the source's active call; other numbers are inactive results; i = inactive; . = no result given. Only part of the results is shown; count on the stated rates, not on these rows.
# Below each SMILES – Calb FLC	T cruzi repl	LANA-H2B inh	Beta2AR agonist	Ecoli rRNA inh	Bfl-1 A1 inh	Ecoli rRNA inh OD600	Ecoli rRNA inh RFP	ALR H2O2 inh	Beta cell apopt
CC1(C)c2ccccc2N2CC(=O)N[C@@]21/C=C/C=C/c1ccccc1
→ -3	36	-5.0	17	-4	-0.3	-2	20	-3	5
Cc1cccc(-c2nc(CN3CCN(Cc4cccc(F)c4)CC3)c(C)o2)c1
→ -7	54	0.1	-6	-12	-1.0	-14	0.8	.	-5
O=C(/C=C/c1ccccc1)OCc1cncs1
→ -1	-2	-1.6	-8	-9	1.9	-14	-4.5	.	-2
COC(=O)COc1ccccc1/C=C1/NC(=O)NC1=O
→ -1	4	5.1	-7	.	-0.7	.	.	-4	3
Nc1nc(SCC(=O)Nc2ccccc2Sc2ccc(Cl)cc2)n[nH]1
→ -5	-6	-1.1	2	.	0.6	.	.	.	-5
Cc1ccc(C(=O)OCC(=O)NCc2ccco2)s1
→ -4	-3	-4.7	3	10	0.5	13	0.2	70	-4
COC(=O)C1=C2SC(C)C(=O)N2C(N)=C(C#N)C1c1cc(OC)c(OC)c(OC)c1 (configuration not stated)
→ -8	-10	4.6	0	.	1.5	.	.	10	-7
CC(C)Oc1ccc(CN2CCCC(CO)(Cc3ccccc3)C2)cc1CO (configuration not stated)
→ -5	17	4.1	1	11	-0.1	2	1.3	-5	-3
CCN(CC)S(=O)(=O)c1ccc(N(C)Cc2cccc(OC)c2OC)nc1
→ 6	29	3.1	1	10	0.7	1	2.5	-1	36
COc1ccccc1N1CCN(C(=O)CNC(=O)c2ccc(Cl)cc2Cl)CC1
→ -5	-3	0.7	-5	-4	-0.5	-13	-3.8	-1	.
COc1ccc(-c2cncnc2-c2ccc(OC)cc2O)cc1
→ 2	2	-10	-2	-7	0.2	-14	-0.8	14	-22
Cc1ccccc1C(=O)NCC(=O)OC(C)C(=O)NC(C)CCc1ccccc1 (configuration not stated)
→ .	.	1.8	0	.	0.3	.	.	.	2
CC(C)CC1NC(=O)N(CC(=O)NC2CCCc3ccccc32)C1=O (configuration not stated)
→ 2	5	6.3	-2	-1	-0.3	-4	-9.9	-3	0
S=c1[nH]nc(Cc2cccs2)n1-c1ccccc1
→ -7	9	-4.3	0	6	0.7	4	2.5	30	-3
Cc1ccc(CSc2nc3c(c(=O)[nH]c(=O)n3C)n2CCC(C)C)cc1
→ -2	22	0.7	4	-2	0.7	7	-2.1	0	.
O=C(c1ccccn1)N(Cc1ccco1)C1(C(=O)NC2CCCC2)CCCCC1
→ 10	-12	1.1	19	.	0.2	.	.	.	1
O=C(COC(=O)c1c2c(nc3ccccc13)/C(=C/c1cccc([N+](=O)[O-])c1)CCC2)NC1CCS(=O)(=O)C1 (configuration not stated)
→ -3	46	-5.6	22	.	-0.2	.	.	-11	11
CCC(=O)N1CCN(c2ccc(NC(=O)COc3ccc(C)cc3C)cc2)CC1
→ -1	-4	2.6	-3	0	0.4	-1	3.4	-16	5
CCN(C(=O)COC(=O)c1c(C)nsc1NC)c1ccccc1
→ .	.	-1.9	-4	3	1.2	9	0.2	-3	-13
Cc1c(CCOC(=O)CC23CC4CC(CC(C4)C2)C3)sc[n+]1Cc1ccccc1
→ 100*	40	7.5	3	.	0.3	.	.	.	56
CCCCN(C(=O)c1ccc2c(c1)OCO2)c1c(N)n(CCCC)c(=O)[nH]c1=O
→ 3	8	-1.4	-3	.	1.1	.	.	2	-5
Nc1cc(=O)[nH]c(SCC(=O)Nc2ccc(Oc3ccccc3)cc2)n1
→ 1	-15	16*	-3	-1	-0.3	2	-1.2	.	0
CCOC(=O)c1sc(Nc2ccc(Br)cc2)nc1C
→ 4	15	-2.5	0	-10	-0.7	-3	-0.6	2	.
Cc1cccc(OCCNc2nc3c(c(=O)n(C)c(=O)n3C)n2C)c1
→ 3	0	-0.3	2	.	0.6	.	.	3	6
Cc1ccc(Cl)c(OCC(O)CN(CCO)CCO)c1 (configuration not stated)
→ -2	3	2.3	-10	.	0.4	.	.	0	-4
NC(=O)c1ccc(-n2c(CCC(=O)O)ccc2-c2cccs2)cc1
→ -3	-5	3.1	2	9	0.2	6	4.5	84*	-2
COc1ccc(-n2nc3c(c2NC(=O)c2c(F)cccc2Cl)CS(=O)C3)cc1 (configuration not stated)
→ -8	-7	-1.4	5	-6	-0.6	-12	-5.5	.	-7
CCc1cc2c(=O)c(-c3nc4ccccc4n3C)coc2c(CN2CCCCC2)c1O
→ -2	-1	.	-1	17	.	6	-0.1	.	.
CCN(c1ccccc1)S(=O)(=O)c1cc(C(=O)OC2CCOC2=O)ccc1C (configuration not stated)
→ .	.	-5.1	-8	2	-0.5	2	-2.9	-4	4
Cc1ccc(CS(=O)Cc2ccc(C(=O)N3CCOCC3)o2)cc1 (configuration not stated)
→ 3	-19	0.8	-4	9	0.8	7	-1.0	-3	5

# Below each SMILES – Calb FLC	T cruzi repl	LANA-H2B inh	Beta2AR agonist	Ecoli rRNA inh	Bfl-1 A1 inh	Ecoli rRNA inh OD600	Ecoli rRNA inh RFP	ALR H2O2 inh	Beta cell apopt
Cc1ccnc(NC(=O)c2cc(S(=O)(=O)NCc3ccccc3)ccc2C)c1
→ .	.	-5.4	-3	-9	-0.6	-9	2.5	-3	-2
CCCCC1C2=C(CCCC2=O)OC2=C1C(=O)CCC2
→ 1	-1	0.9	-1	.	0.6	.	.	-8	2
COC(=O)CCC(=O)NNC(=O)c1ccc(Cl)cc1Cl
→ -7	-10	-1.7	-1	.	1.5	.	.	-3	-4
CCc1ccccc1NC(=O)CN(C)C(=O)CN1C(=O)NC2(CCCCCC2)C1=O
→ -2	-12	-0.2	3	9	0.2	-4	1.1	-3	-14
Cc1ccc(C(=O)NCCc2nnc3ccc(SCC(=O)NCc4ccc(F)cc4)nn23)cc1
→ -1	-8	-0.5	-13	1	-0.5	3	1.3	-6	1
Cc1cc(C)cc(N(C(=O)Cc2cccs2)C(C(=O)NC2CCCC2)c2ccc(C)o2)c1 (configuration not stated)
→ -4	27	-2.4	6	15	1.2	0	0.9	-7	-6
CCOc1ccc(CNCc2cccnc2)cc1
→ -3	10	-1.4	-2	.	0.1	.	.	.	-2
COc1ccc([C@H]2[C@@H]3C=CCC[C@@]3(C)C(=O)N2Cc2ccccc2)cc1Cl
→ 14	8	4.9	10	-22	0.2	-23	13	.	8
CC(NC(=O)COC(=O)c1cc(Cl)nc(Cl)c1)c1ccccc1 (configuration not stated)
→ 20	-10	1.2	-17	14	0.0	13	0.4	-10	-5
CS(=O)(=O)N(CC(=O)N1CCN(c2cccc(Cl)c2)CC1)c1ccccc1
→ 19	19	-4.0	4	.	0.2	.	.	-5	-3
O=C(c1ccc(C23CC4CC(CC(C4)C2)C3)o1)N1CCOCC1
→ -10	10	-4.9	-16	.	-1.0	.	.	5	-4
Cn1nnnc1SCCNC(=O)C1CCC(=O)N(Cc2ccc(Cl)cc2)C1 (configuration not stated)
→ 0	-26	0.8	-1	13	0.4	9	-0.1	-4	-4
Cc1ccc(-c2ccc(C(=O)O)c(C)n2)cc1
→ -7	-21	-3.2	-12	-1	-4.1	-1	-4.1	-2	-6
CCN(CC)C(=O)CSc1nnc(-c2c[nH]c3ccccc23)o1
→ -11	-6	-2.0	0	-19	0.0	-14	0.3	-2	.
CCOC(=O)Cc1csc(SCC(=O)Nc2cccc(Cl)c2)n1
→ -27	-22	10	-6	.	0.5	.	.	-35	.
CCC(=O)N1CCN(c2ccc(Cl)cc2NC(=O)Cc2ccc(Cl)cc2)CC1
→ 33	23	-0.8	-5	.	0.8	.	.	-9	12
O=C(NC1=NCCS1)c1ccccc1F
→ 5	-13	6.4	-2	6	0.7	6	-1.0	11	-1
CCCn1nnc(NC(=O)COc2cc(C)ccc2C(C)C)n1
→ -5	21	2.8	2	.	0.1	.	.	-2	-4
COc1ccc2c(c1)cc1c(=O)n(CC(=O)NCCCN3CCOCC3)nc(C)n12
→ 8	-14	-0.4	-3	8	-0.5	12	0.1	-15	-6
COc1cccc(OCCCN2CCCCCC2)c1
→ -2	4	3.5	-1	1	0.0	-4	-0.4	-4	-3
CN(C)S(=O)(=O)c1cccc(NC(=O)c2cc([N+](=O)[O-])ccc2N2CCCCC2)c1
→ .	.	i	11	-10	-0.1	-13	1.8	-2	1
Cc1ccc(N2CC(C(=O)NCc3n[nH]c(=O)c4ccccc34)CC2=O)cc1C (configuration not stated)
→ 1	-10	-4.5	4	7	0.9	15	0.9	-1	-7
CC(C)(C)OC(=O)N1CSC[C@H]1C(=O)NC[C@H](CC(=O)O)c1ccc(Cl)cc1
→ -2	5	0.4	4	1	0.4	3	-1.1	.	-3
CN(Cc1nc(-c2ccc(Cl)cc2)no1)C(=O)CCN1C(=O)[C@H]2CC=CC[C@H]2C1=O
→ 3	5	1.2	-4	4	0.4	1	-1.4	-2	-2
CCOC(=O)C1=C(COC(=O)CSc2ccc(C)cc2)NC(=O)NC1C (configuration not stated)
→ .	.	1.3	-2	5	-1.4	3	1.5	-24	-4
CCc1cc2c(SCC(=O)Nc3ncc(Cl)c(C)c3Cl)ncnc2s1
→ -12	-2	6.9	-16	1	-0.1	-3	6.0	-2	-2
CC(Sc1nc2ccccc2n1C)C(=O)NC(c1ccccc1)c1ccccc1 (configuration not stated)
→ 59	-1	-0.1	1	.	0.2	.	.	-8	5
Cn1c2ccccc2c(=O)c2ccc(NCCc3cccs3)cc21
→ .	.	-6.4	21	-35	-7.1	-56	-11	-4	13
CCOC(=O)C1=C(N)Oc2c(oc(CO)cc2=O)C1c1ccc(F)c(F)c1 (configuration not stated)
→ 5	-4	-13	-3	-3	1.4	4	-2.1	16	-7
COc1ccc(N(CC(=O)NCc2ccc(Cl)cc2)S(=O)(=O)c2ccccc2[N+](=O)[O-])c(OC)c1
→ 41	36	1.5	-3	-8	-0.5	-9	-1.2	-6	11

# Below each SMILES – Calb FLC	T cruzi repl	LANA-H2B inh	Beta2AR agonist	Ecoli rRNA inh	Bfl-1 A1 inh	Ecoli rRNA inh OD600	Ecoli rRNA inh RFP	ALR H2O2 inh	Beta cell apopt
CNC(=S)N1CCc2cc(OC)c(OC)cc2C1COc1ccc(F)cc1 (configuration not stated)
→ 21	-16	0.0	-8	-4	1.4	-13	-2.2	-1	-11
Cc1nnsc1C(=O)N1CCN(c2cc(C(F)(F)F)ccn2)CC1
→ 1	6	-11	-11	-3	-0.7	-1	-2.2	.	-3
COc1ccc(OC)c(C(=O)N2CCC(n3nccc3NC(=O)CC(C)C)CC2)c1
→ 2	17	0.9	-7	20	0.4	16	2.6	-3	-8
C=CCN(Cc1nc(-c2cc(OC)c3c(c2)OCO3)oc1C)C1CCS(=O)(=O)C1 (configuration not stated)
→ -12	8	-1.0	-2	-2	0.1	1	-0.5	-2	-1

# Assay outcomes deposited in PubChem by several laboratories.
